# From PubChem
# TRPV1 PAM – human TRPV1 potentiation. potentiation, % at 8.33 µM. Q8NER1. TRPV1-expressing cells, Fluo-8 calcium influx, capsaicin EC20 potentiation; host cell line not named in the record; control for the full effect not named in the record. actives 0.02% (n = 320,000). AID 540277; active means potentiation above 80%; inconclusive means 30% to 80%; inactive means below 30%; further: 0% is about no effect
# Target sequence (Q8NER1 whole entry, looked up): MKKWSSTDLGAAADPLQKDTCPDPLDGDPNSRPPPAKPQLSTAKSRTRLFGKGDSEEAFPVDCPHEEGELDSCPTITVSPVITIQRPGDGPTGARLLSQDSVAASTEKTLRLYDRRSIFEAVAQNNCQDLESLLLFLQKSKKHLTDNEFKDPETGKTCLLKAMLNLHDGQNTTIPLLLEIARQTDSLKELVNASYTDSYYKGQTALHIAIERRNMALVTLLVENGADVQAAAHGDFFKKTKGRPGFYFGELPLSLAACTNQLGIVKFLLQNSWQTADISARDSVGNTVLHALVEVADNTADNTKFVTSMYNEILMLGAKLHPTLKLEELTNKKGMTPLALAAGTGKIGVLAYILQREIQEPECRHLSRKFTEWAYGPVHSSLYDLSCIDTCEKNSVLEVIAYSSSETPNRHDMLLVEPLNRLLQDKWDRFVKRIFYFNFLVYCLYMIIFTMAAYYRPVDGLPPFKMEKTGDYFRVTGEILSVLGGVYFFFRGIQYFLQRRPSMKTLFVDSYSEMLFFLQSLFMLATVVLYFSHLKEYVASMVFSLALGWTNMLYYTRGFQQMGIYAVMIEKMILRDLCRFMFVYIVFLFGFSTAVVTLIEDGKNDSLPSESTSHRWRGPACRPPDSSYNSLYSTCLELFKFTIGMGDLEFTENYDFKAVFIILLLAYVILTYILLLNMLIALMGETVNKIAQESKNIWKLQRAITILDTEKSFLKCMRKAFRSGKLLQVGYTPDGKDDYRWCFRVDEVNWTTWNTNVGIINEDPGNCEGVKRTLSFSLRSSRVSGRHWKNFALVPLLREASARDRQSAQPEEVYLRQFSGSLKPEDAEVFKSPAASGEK
#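 TRPV1-expressing cells were cultured overnight at 35.5C and loaded with Fluo-8 calcium dye for 40 to 90 min at room temperature. After a 10 s baseline, compound was added and calcium influx was read kinetically for 3 min (ex 480/em 520 nm).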
# gsp ag – agonists of gsp mutant (McCune-Albright syndrome); gsp mutant cells, cAMP HTRF, 30 min; control for the full effect not named in the record; actives 0.13% (n = 340,000); Potency, µM (top dose mostly 76.9 µM), for inactives: at the highest dose activation (cAMP increase), actives largely listed as activators; active = well fitted activation curve with a large enough effect; inconclusive = small, poorly fitted or top-dose-only effect, or another doubt; inactive = no such curve, though single readings can be large or run the other way; cell line not stated here;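 further: phosphodiesterase inhibitor Ro 20-1724 added with compounds to block cAMP breakdown; potency means the concentration at half of the fitted maximal effect; nearly all actives have a fitted effect of over 60% in size; about a fifth of the inactives were tested at one dose only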
#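 Cells in DMEM/10% FBS with G418 were pretreated with compounds in DMSO plus […] (300 uM stock) for 30 min at 37C. cAMP was measured by HTRF (cAMP-d2 plus anti-cAMP antibody-K) after 30 min at room temperature.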
# Sfp PPTase inh – blocks B. subtilis Sfp PPTase activity | Biochemical Sfp PPTase activity, qHTS | AID 1490 | actives 3.5% (n = 310,000) | Q9F4F7 | Potency, µM, without a hit: max response, negative = inhibition, actives largely listed as inhibitors; active means well fitted inhibition curve with a large enough effect; inconclusive means small, poorly fitted or top-dose-only effect, or another doubt; inactive means no such curve, though single readings can be large or run the other way;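 further: the enzyme is Sfp with the accession as filed and its product quenches rhodamine fluorescence; potency means the concentration at half of the fitted maximal effect; 0% = enzyme reaction without inhibitor and -100% = no enzyme wells; top concentration of the series not given in the record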
#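 Fluorescence-quenching assay with 15 nM Sfp, 5 uM rhodamine-CoA and 12.5 uM BHQ-2-labelled ybbR peptide in pH 7.6 Hepes/MgCl2 buffer. Enzyme was pre-incubated with compound for 15 min at room temperature. Rate was taken from the 30-min fluorescence change (525/598 nm).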
# CtBP-E1A inh – CtBP/E1A binding inhibition; activity change, % (concentration not given with the values); AlphaScreen GST-E1A/His-CtBP binding, 1536-well; active compounds read low; control for the full effect not named in the record; actives 0.49% (n = 340,000); AID 651724; in the data active means activity change below about -65%; inconclusive means about -30% to -65%; inactive means above about -30%; further: on the % scale 0 is the no-effect control and ±100 the full control effect
#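 Protein mix (5X: 125 nM each GST-E1A, His-CtBP) was incubated with pinned compound 2 h at 37 deg C in dark, in 50 mM Tris pH 8.0 buffer with 300 mM NaCl. Glutathione donor and nickel acceptor beads followed; AlphaScreen signal read after 1 h.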
# Menin MLL FP FL – inhibitors of human menin-MLL interaction, wild-type MLL peptide. Fluorescence polarization, fluorescein-MLL peptide displacement from menin. FP activity change, % at 61.4 µM. 290,000 tested, under 10 active. AID 1766; inconclusive = falling polarisation curve, or a change in total fluorescence; inactive = total fluorescence flat and polarisation flat or rising; no compound was filed as active; the % refers to the polarisation; negative = inhibition;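 further: % of control where 0% means no effect; inhibitors lower the polarisation; unlabelled MLL peptide was the positive control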
# gsp antagonist – antagonizes gsp, the McCune-Albright syndrome mutation | AID 624288 | gsp-mutant cells, cAMP HTRF, 30 min; control for the full effect not named in the record | actives 0.4% (n = 340,000) | Potency, µM (top dose mostly 76.9 µM), for the others: at the highest dose activity change, negative = inhibition, hits mostly inhibitors; active = falling curve of any shape with a large fitted effect; inconclusive = falling curve, mostly with a smaller effect; inactive = flat or rising curve; cell line not stated here;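 further: intracellular cAMP measured with PDE inhibitor Ro 20-1724 present during compound exposure; potency means the concentration at half of the fitted maximal effect; on the % scale 0 is the no-effect control and ±100 the full control effect; nearly all actives have a fitted effect of over 65% in size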
#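 HTRF cAMP measurement after 30 min RT detection following 30 min, 37C compound treatment alongside […] (added as 300 uM solution) in G418-selected cells seeded at 2000/well and grown 16–24 h.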
# ClpP mod – qHTS Assay for Activators of ClpP; actives 1.9% (n = 340,000); purified B. subtilis ClpP, FRET peptide cleavage, 20 min; Potency, µM (series often up to 57.5 µM), inactives show top-dose activity change, negative = active; ATP-dependent Clp protease proteolytic subunit (Bacillus subtilis (strain 168)), P80244; active = well fitted falling curve with a large enough effect; inconclusive = small, poorly fitted or top-dose-only effect; inactive = no such curve, though single readings can be large or run the other way; further: potency means the concentration at half of the fitted maximal effect; the source files actives as falling curves though it sought activators and does not explain the sign; nearly all actives have a fitted effect of over 65% in size; many hits overshoot -100%
# Target sequence (P80244 whole entry, looked up): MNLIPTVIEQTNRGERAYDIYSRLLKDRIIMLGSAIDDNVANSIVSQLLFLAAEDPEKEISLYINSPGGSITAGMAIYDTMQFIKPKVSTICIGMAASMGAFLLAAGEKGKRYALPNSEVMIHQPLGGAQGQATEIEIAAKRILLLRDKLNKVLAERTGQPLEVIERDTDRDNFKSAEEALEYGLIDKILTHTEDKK
#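 Purified B. subtilis ClpP, 10 microg/mL final in Tris/HCl pH8 with KCl, BSA, glycerol and Tween-20, cleaved an Abz/nitrotyrosine-quenched decapeptide. Fluorescence (ex 320, em 430) was read at 0 and 20 min at room temperature. Delta was normalized to 5.8 microM ADEP and DMSO/no-enzyme controls.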
# Numbers without * were called inactive; ? = inconclusive; . = no result given; & = joins results of further samples; [ ] = dose if it differs, or a comment.
structure	TRPV1 PAM	gsp ag	Sfp PPTase inh	CtBP-E1A inh	Menin MLL FP FL	gsp antagonist	ClpP mod
O=C(Nc1ncc(Cc2cccc(Cl)c2Cl)s1)C1CCCO1 (stereo not given)	-7	-11%[15.4 µM]	-9%	-2	-0.5	22%	.
CCc1ccc(N(CC(=O)Nc2ccccc2C(=O)N2CCCC2)S(C)(=O)=O)cc1	-4	2%	2%	0	.	7%	-3.8%
Cc1ccc(NC(=O)c2ccccc2OCC(=O)Nc2ccccc2F)cc1S(=O)(=O)N(C)C	5	-16%	.	.	.	-8%	?
Cc1cc(C)n2c(SCC(C)C)nnc2n1	-6	?	23%	3	1.2	6%	.
O=C(Cc1c(Cl)cccc1Cl)OCC(=O)c1ccc[nH]1	.	2%	.	5	.	.	0.5%
CCOC(=O)C1=C(c2ccccc2)O/C(=C(\C(=O)OC)C(F)(F)F)S1	2	-11%	?	12	-0.4	-9%	?
CC(C)(C)c1ccc(OCCC(=O)OCC(=O)NC2CCS(=O)(=O)C2)cc1 (stereo not given)	-4	7%	.	3	.	13%	-4.5%
CCCN1CCc2c(sc3nc(SCC)n(-c4ccc(OC)cc4)c(=O)c23)C1	-17	-14%	1%	-23	18	4%	.
CCOC(=O)CN1CC23C=CC(O2)C(C(=O)O)C3C1=O (stereo not given)	3	-17%	18%	6	2.5	-3%	1.3%
Cc1ccc(NC(=O)c2sc(C)nc2C)c(C)c1	19	20%	-8%	7	1.6	9%	.
CC(=O)c1ccc(NC(=S)NCC(c2ccco2)N2CCCC2)cc1 (stereo not given)	6	-15%	9%	-1	-2.3	9%	1.7%
Cc1c(O)nc(SC2CC(=O)N(c3ccccc3)C2=O)[nH]c1=O (stereo not given)	?	-1%	79µM*	3	1.6	4%	-0.4%
CCCCN(CCCC)CCNC(=O)c1cn(CC)c2ccc(S(=O)(=O)N(C)C3CCCCC3)cc2c1=O	-15	-8%	9%	.	0.5	8%	1.0%&1.2%
CSc1ccc(CN2CCSCC2)cc1	-8	1%[15.4 µM]	-6%	2	-0.5	9%	-0.3%
CCN(Cc1ccccc1)C(=O)c1cc2c(OC)c(OC)c(OC)cc2[nH]1	-23	24%	2%	-21	2.0	-1%	-30%
CCOc1ccccc1NC(=O)CSc1nnc(-c2cnccn2)n1C	17	?	9%	-1	2.8	-3%	-2.2%
CCCc1cc(NCc2ccccn2)n2nc(C)c(-c3ccccc3)c2n1	-10	?	-9%	15	-5.9	-14%	.
O=C(NCCCN1CCOCC1)c1cccc(S(=O)(=O)Nc2ccccc2Cl)c1	-17	-2%[15.4 µM]	-2%	-20	.	-3%	-10%
O=C1CSC(=Nc2ccccc2)N1	-1	-8%	6%	3	2.2	14%	-1.2%
Cc1ccccc1OCC(=O)NCC1CCCO1 (stereo not given)	3	-7%	10%	20	-1.0	0%	1.7%
COc1ccc(CCNC(=O)c2cc3c(=O)n4ccccc4nc3n(CC3CCCO3)c2=N)cc1OC (stereo not given)	6	.	12%	0	0.1	-16%	-16%
Cc1ccc(Nc2ncnc3sc(C)c(C)c23)cc1C	-3	20%	-4%	2	-2.5	16%	0.9%
COc1cccc(CNC(=O)CCNC(=O)c2ccc(Br)o2)c1	1	-12%	16%	4	0.6	20%	1.0%
COc1ccc(-c2cc(C(=O)N3CCN(C(c4ccccc4)c4ccccc4)CC3)no2)cc1	24	-11%	4%	-1	7.5	2%	-4.1%
CCCCOc1ccc(/C=C/C(=O)OCC(=O)N2CC(=O)Nc3ccccc32)cc1OCC	5	2%[15.4 µM]	5%	-15	-3.8	-30%	-4.1%

# Among those listed so far, these have two or more sulfur atoms:
structure	TRPV1 PAM	gsp ag	Sfp PPTase inh	CtBP-E1A inh	Menin MLL FP FL	gsp antagonist	ClpP mod
CCCN1CCc2c(sc3nc(SCC)n(-c4ccc(OC)cc4)c(=O)c23)C1	-17	-14%	1%	-23	18	4%	.
CSc1ccc(CN2CCSCC2)cc1	-8	1%[15.4 µM]	-6%	2	-0.5	9%	-0.3%

# Part of the list above, with values under each structure:
# Values run as follows: TRPV1 PAM | gsp ag | Sfp PPTase inh | CtBP-E1A inh | Menin MLL FP FL | gsp antagonist | ClpP mod
CCCc1cc(NCc2ccccn2)n2nc(C)c(-c3ccccc3)c2n1
→ -10 | ? | -9% | 15 | -5.9 | -14% | .
CCOC(=O)C1=C(c2ccccc2)O/C(=C(\C(=O)OC)C(F)(F)F)S1
→ 2 | -11% | ? | 12 | -0.4 | -9% | ?

# The listing continues.
structure	TRPV1 PAM	gsp ag	Sfp PPTase inh	CtBP-E1A inh	Menin MLL FP FL	gsp antagonist	ClpP mod
O=C(Nc1ccc(S(=O)(=O)N2CCCCC2)cc1)c1ccc(CN2CCc3ccccc3C2)cc1	7	-60%[inhibitor]	28%	-10	-0.5	4%	?
Cc1cc(C)cc(NC(=O)N2CCCCCCC2)c1	14	2%	23%	?	-2.1	-1%	.
CC(=O)Nc1ccc(C(=O)Cn2nnc3ccccc3c2=O)cc1	1	-2%	13%	-12	2.3	-9%	-2.3%
CCCCCNC(=O)c1cc(S(=O)(=O)N2CCCCC2)ccc1F	-17	1%	17%	6	0.0	5%	-0.4%
CCOc1ccc2c(c1)N(C(=O)CN1C(=O)CCC1=O)C(C)(C)C=C2C	-5	-3%	23%	3	0.8	-3%	32µM*
C/C(=N\N=C(c1ccccc1)c1ccccc1)c1cccs1	12	-24%	-7%	7	-3.2	1%	2.3%
COC(=O)c1c(NS(=O)(=O)c2ccc(C)cc2)sc2c1CCC(C)C2 (stereo not given)	6	5%	16%	-3	-0.9	-19%	1.3%
Cc1ccc(C)c(NC2=NS(=O)(=O)c3ccccc32)c1	3	-30%[inhibitor]	14%	10	2.1	-13%	-0.7%
Cc1cccc(OCC(=O)NC2CCCCCC2)c1C	-7	-16%	18%	-11	.	0%	-4.8%
N#Cc1cc(-c2ccccc2)nc(N2CCNCC2)n1	-1	4%	13%	-1	0.5	-1%	.
O=C(COC(=O)c1cccs1)NCCc1ccc(F)cc1	3	-6%[15.4 µM]	.	13	.	5%	.
CCCCOCCCNC(=O)COc1ccccc1	4	-34%[inhibitor]	10%	11	1.2	-8%	0.0%
Cc1ccc(C(=O)NCCCNC(=O)c2ccco2)cc1	-12	-1%	0%	-2	1.8	9%	.
COc1ccc2c(c1)c(C(C)=O)c(C)n2-c1ccccc1	-3	-1%	-1%	3	-0.4	-7%	-1.7%
CCC1CCCN1Cn1cnc2c([nH]c3ccccc32)c1=O (stereo not given)	6	-11%	-5%	-17	-1.4	9%	25µM*
Cc1ccc(C2(C(F)(F)F)NC(=O)N3CCCN=C3S2)cc1 (stereo not given)	9	15%	-4%	16	0.8	-7%	0.3%
CC(C)c1csc(CN2CCC(C(=O)Nc3cccc(-c4ccco4)c3)CC2)n1	.	-32%[inhibitor]	.	-2	.	.	-0.8%
CN(CC(=O)NNC(=O)c1cccnc1)S(=O)(=O)c1cc(Cl)ccc1Cl	-4	-1%	4%	-1	-4.3	2%	.
CNC(=O)c1sc(SC)cc1-c1ccc(Cl)cc1	.	-8%	7%	1	3.3	-1%	-0.8%
CC(c1ccco1)N(C(=O)c1ccc(S(=O)(=O)N2CCCCC2)cc1)c1ccccn1 (stereo not given)	-14	-17%	-4%	1	4.5	-1%	-0.1%
O=C(Nc1cccc(S(=O)(=O)N2CCCCCC2)c1)c1cncc(Br)c1	.	0%[15.4 µM]	.	-5	.	?	2.0%
COCCCN(C(=O)c1cc2c(s1)CCCCC2)c1c(N)n(Cc2ccccc2)c(=O)[nH]c1=O	-9	-38%[15.4 µM]	.	-27	.	1%	.
O=C(CCC(=O)Nc1ccc(Br)cc1)N/N=C/c1cc([N+](=O)[O-])ccc1O	9	11%	17%	-15	-0.5	-8%	.
OCCN1CCN(c2nc(-c3ccccc3)nc3c2oc2ccccc23)CC1	.	12%	3%	-3	2.7	11%	-24%
O=C(Cn1c(C(=O)O)cc2ccccc21)c1ccccc1	-5	-11%[15.4 µM]	22%	3	-7.5	0%	-0.1%

# (more compounds)
structure	TRPV1 PAM	gsp ag	Sfp PPTase inh	CtBP-E1A inh	Menin MLL FP FL	gsp antagonist	ClpP mod
C[C@@H]1CN([C@H](C)CO)C(=O)c2cc(NS(=O)(=O)c3ccc(F)cc3)ccc2O[C@@H]1CN(C)Cc1ccc(Cl)c(Cl)c1	.	.	.	?	.	-7%	-2.9%
CN1CCN(C(=O)c2cnn(-c3ccccc3)c2NC(=O)c2ccc(Br)cc2)CC1	.	5%	.	-6	.	13%	-2.9%
O=C(NCCS(=O)(=O)N1CCN(c2ccccc2F)CC1)c1ccc(Br)cc1	-8	-5%	19%	3	4.7	15%	1.3%
CC1(C)Cc2c(sc3ncn4nc(-c5ccco5)nc4c23)CO1	.	2%	.	1	.	5%	?
O=C(COC(=O)c1ccc2c(c1)C(=O)N(Cc1ccco1)C2=O)NCC(F)(F)F	7	-6%[15.4 µM]	-5%	-1	-3.8	3%	.
CC(C)(C)NC(=O)NC12CC3CC(CC(C3)C1)C2	-2	16%	15%	.	-0.1	1%	2.3%
CCCCCc1c(C)[nH]c2nc3ccccc3n2c1=O	7	19%	0%	-3	-1.0	-3%	.
COCCN(C(=O)c1snc(C(N)=O)c1N)C(C(=O)NC1CCCCC1)c1ccc(F)cc1 (stereo not given)	0	13%	0%	0	4.7	-1%	-22%
O=C1CCCN1CCCNS(=O)(=O)c1ccccc1	7	18%	13%	1	0.7	12%	-1.6%
COc1ccc2c(c1)c(N=O)c(O)n2C	-2	-32%[inhibitor]	0%	-3	0.7	3%	3.1%
CCC(OC(=O)CN1C(=O)c2ccccc2C1=O)C(=O)NC1CCCC1 (stereo not given)	23	7%[15.4 µM]	14%	9	-9.0	2%	.
